High-throughput results (PubChem)
VDR inh: inhibitors of human vitamin D receptor. actives 0.93% (n = 400,000). Potency, µM, for inactives: max response, negative = inhibition, usual class: inhibitors. P11473. VDR-SRC2-3 peptide fluorescence polarization, 2 h; active = well fitted inhibition curve with a large enough effect; inconclusive = small, poorly fitted or top-dose-only effect, or another doubt; inactive = no such curve, though single readings can be large or run the other way; note: series mostly up to about 120 µM
Target sequence (P11473 whole entry, looked up): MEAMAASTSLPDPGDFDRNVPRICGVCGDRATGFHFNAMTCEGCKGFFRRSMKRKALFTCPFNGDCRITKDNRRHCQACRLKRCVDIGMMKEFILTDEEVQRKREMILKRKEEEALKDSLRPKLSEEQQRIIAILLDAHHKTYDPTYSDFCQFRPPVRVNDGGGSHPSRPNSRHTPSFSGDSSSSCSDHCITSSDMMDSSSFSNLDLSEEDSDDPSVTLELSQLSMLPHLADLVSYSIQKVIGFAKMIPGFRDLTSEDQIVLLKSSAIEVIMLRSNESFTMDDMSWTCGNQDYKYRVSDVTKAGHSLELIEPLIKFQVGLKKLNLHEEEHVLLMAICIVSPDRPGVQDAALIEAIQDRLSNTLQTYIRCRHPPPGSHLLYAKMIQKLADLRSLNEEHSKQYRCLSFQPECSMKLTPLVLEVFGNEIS
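Signal is fluorescence polarization, reporting how far test compounds block the interaction of VDR with the SRC2-3 coregulator peptide after a 2 h room-temperature incubation.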
Starred values were filed as active, the others as inactive; u = inconclusive; [ ] = dose if it differs, or a comment. % is set by controls: 0 for no effect and ±100 for the full control effect; potency is the fitted concentration of half-maximal effect. Not all compounds are listed. The share of hits here may be higher or lower than overall.

VDR inh | compound
8% | Cc1ccc(SCC(=O)OC(C)C(=O)NC2(C#N)CCCCC2)cc1 (centres undefined)
7% | Cn1nc(C(F)(F)F)c(C#N)c1N1CCN(c2ccc(F)cc2)CC1
74%[activator] | O=C(Nn1cnc2ccccc2c1=O)c1ccc(F)cc1Cl
-3% | CCc1ccc(N2C(=O)Cc3c2nc(N)c(C#N)c3N)cc1
11% | CCOC(=O)c1c(C)oc2ncnc(Nc3cc(C)cc(C)c3)c12
-6% | Cc1cc2nnc(SCC(=O)N(C)C3CCS(=O)(=O)C3)n2c2ccccc12 (centres undefined)
15% | COc1ccc(NC(=O)c2cccc(N3C(=O)C4CC=C(C)CC4C3=O)c2)c(OC)c1 (centres undefined)
-7% | CC(C)Cn1c(C2CC(=O)N(c3ccccc3Cl)C2)nc2ccccc21 (centres undefined)
-18% | CC(OC(=O)C1CCN(S(=O)(=O)c2ccc(C(C)(C)C)cc2)CC1)C(=O)N(C)C1CCCCC1 (centres undefined)
4% | Cc1cccnc1NC(=O)CSc1ccc2c(c1)OCCO2
8% | COc1ccc(N2CCN(C(=O)c3ccc(S(=O)(=O)N4CCOCC4)cc3)CC2)cc1
6% | COc1ccc(N2CCN(Cc3cc(=O)oc4cc(-c5ccccc5)c(O)cc34)CC2)cc1
7% | COCCN(C(=O)COC(=O)CC(C)c1ccccc1)c1c(N)n(Cc2ccccc2)c(=O)[nH]c1=O (centres undefined)
30% | COC(=O)C(CCSC)NC(=O)CNS(=O)(=O)c1ccc(Br)cc1 (centres undefined)
-3% | CCOC(=O)C(=O)Nc1nc(-c2ccccc2)c(-c2ccccc2)o1
12% | CC(C)CCC1(CCNC(=O)c2cccs2)CCOC(C)(C)C1 (centres undefined)
-10% | O=C(CSc1nc2c(oc3ccccc32)c(=O)n1CC1CCCO1)NCc1ccc(F)cc1 (centres undefined)
-3% | COc1ccc(OC)c(S(=O)(=O)N2CCCC(C(=O)NCc3ccco3)C2)c1 (centres undefined)
-6% | CN(c1ccccc1)S(=O)(=O)c1cccc(NC(=O)C2CC(=O)N(Cc3ccccc3)C2)c1 (centres undefined)
-24% | CCOC(=O)C1CCN(C(=O)C2CC(=O)N(c3ccc(C)cc3)C2)CC1 (centres undefined)
-14% | CCOc1ccc2c(c1)cc(CN(C(=O)CC)C1CCCCC1)c1nnnn12
3% | O=C(Nc1ccc2c(c1)OCO2)N1CCOCC1
1% | COC(=O)c1ccccc1Oc1cnc2ccccc2n1
-4% | COCc1c(Br)c(C)nc(OCC(=O)N/N=C/c2cc(C)n(-c3ccc([N+](=O)[O-])cc3)c2C)c1C#N
u | COc1cc(/C=N/NC(=O)c2ccc(Cn3cc([N+](=O)[O-])cn3)o2)cc(Br)c1O
12% | COC(=O)c1ccc(/C=N/N2C(C)CCCC2C)cc1 (centres undefined)
-3% | Cc1ccc(NC(=O)CC2SC3=NCCN3C2=O)cc1 (centres undefined)
-3% | COc1ccccc1C(=O)Nc1cccc2nc(C)ccc12
5% | COc1cccc(C(=O)NCC(=O)OCc2ccc(F)cc2Cl)c1
-18% | CCCCCOC(=O)Cc1c(C)nc(-c2ccccc2)[nH]c1=O
9% | CC(C)(C)c1cc(Cc2ccccc2)[nH]n1
7% | CCCC(=O)N1CCN(c2ccc(NC(=S)NC(=O)c3cccc(C)c3)cc2)CC1
-16% | COc1ccc([N+](=O)[O-])cc1NC(=O)Cn1ccc(C(F)(F)F)n1
-1% | COCc1nnc(NC(=O)c2ccc(S(=O)(=O)N(C)c3ccccc3)cc2)o1
1% | O=C(Nc1ccc2nc3n(c(=O)c2c1)CCCC3)c1cncc(Br)c1
-5% | COc1cccc(/C=C/C(=O)OCC(=O)Nc2ccc(S(=O)(=O)N3CCCC3)cc2)c1
-16% | CCCC[C@@H]1CCCO[C@@](C(=O)NCc2ccc(C)o2)(C(F)(F)F)C1
7% | CCOC(=O)Cn1nnnc1CN(Cc1ccc(OC)cc1)Cc1cc2cc(C)cc(C)c2[nH]c1=O
7% | O=C(/C=C/c1cccs1)Nc1ccc(S(=O)(=O)Nc2ncccn2)cc1
5% | COc1cccc(CN2CCN(CC(=O)NCCc3ccccc3)CC2)c1
3% | CCOC(=O)C[C@H]1c2ccc(C(F)(F)F)cc2S(=O)(=O)N1Cc1ccccc1
3% | CCOc1ccc(S(=O)(=O)NCCC(=O)NCCOc2ccccc2)cc1
-8% | Cc1csc(NC(=O)CSCC(=O)Nc2ccccc2)n1
4% | CCC(C)(C)NC(=O)CN(C(=O)C(=O)Nc1ccc2c(c1)OCCO2)C(C)(C)CC
3% | CCn1c(C(O)c2ccc(C)cc2)nc2ccccc21 (centres undefined)
-20% | COc1ccc(/C=N/NC(=O)C2CC2)c(OC)c1OC
5% | O=C(/C=C/c1ccc(F)cc1)NCc1ccco1
-2% | CCCCCN(C(=O)CCC(=O)OC(C)C(=O)c1ccc(CC)cc1)c1c(N)n(CCCC)c(=O)[nH]c1=O (centres undefined)
-16% | CC(NS(=O)(=O)c1ccc(F)cc1)C(c1cccs1)N1CCOCC1 (centres undefined)
-17% | O=c1[nH]c2c(oc3ccccc32)c(=O)n1Cc1ccccc1
-23% | Cc1ccc(Nc2nc(Nc3ccc(C)c(C)c3)nc(N3CCOCC3)n2)cc1C
-8% | Cn1cc(S(=O)(=O)N2CCOCC2)cc1C(=O)NCc1ccc(Cl)cc1
-9% | C[C@@H]1CN(C(=O)c2ccc(OC3CCN(S(=O)(=O)N(C)C)CC3)cc2)C[C@H](C)O1
-24% | O=c1c(-c2ccnn2-c2ccccc2F)cnc2n1CCS2
20% | CC(C)CC(=O)NC1(C(F)(F)F)NC(=O)N(c2ccccc2)C1=O (centres undefined)
-16% | Cc1cccc(NC(=O)c2sc3nc4c(c(-c5ccco5)c3c2N)CCC4)c1
-9% | COc1ccc([N+](=O)[O-])cc1NC(=O)CS(=O)(=O)c1ccc(C)cc1
4% | COc1ccc(CC(=O)Oc2ccc(C(C)C)cc2)cc1S(=O)(=O)N1CCOCC1
-14% | COCC(=O)N1CCC(Oc2ccc(C(=O)N3C[C@@H](C)O[C@@H](C)C3)cc2)CC1
11% | Cc1c(C(=O)O)sc2nc(/C=C/c3ccccc3OC(F)F)[nH]c(=O)c12

Going on with the list.
VDR inh | compound
-12% | Cc1nn(CC(O)COc2ccc3c(c2)CCC3)c(C)c1Br (centres undefined)
15% | CCN(CC)C(=O)Cn1nc(-c2ccncc2)nc1SCC(=O)Nc1ccc(OC)cc1
14% | Cc1ccc(Sc2ccc(NC(=O)CCN3C(=O)NC4(CCCC4)C3=O)cc2)c(C)c1
8% | O=C1CC(N(Cc2cccs2)C(=O)Nc2ccccc2)C(=O)N1c1ccc(Cl)cc1 (centres undefined)
-17% | COc1ccccc1CN1CC(C(=O)NCCc2ncccc2C)CCC1=O (centres undefined)
-3% | CCOc1ccc(OCCNC(=O)C(NC(=O)c2c(F)cccc2F)C(C)C)cc1 (centres undefined)
-17% | COC(=O)c1ccc(Cl)cc1NC(=O)/C=C/c1ccc(C)o1
2% | C/C(=N\NC(=O)c1ccc(Cn2cc(Br)cn2)o1)c1ccc(NC(=O)c2ccoc2C)cc1
-20% | Cn1nc(-c2ccccc2)c(C(O)c2ccccc2C(F)(F)F)c1Cl (centres undefined)
5% | COc1ccc(C(=O)N2N=C(c3cccc(NS(C)(=O)=O)c3)CC2c2cccs2)cc1 (centres undefined)
-1% | CCOc1ccc2nc(SCC(=O)c3ccc(Cl)s3)sc2c1
3% | Cc1cc(CNC(=S)Nc2ccc(S(=O)(=O)Nc3ncccn3)cc2)nn1C
1% | COC(=O)c1cc(NC(=O)Cn2c(=O)oc3ccccc32)cc(C(=O)OC)c1
-13% | CC/C(=N/O)c1cnnc(SC)n1
12% | O=C(Nc1ccc(S(=O)(=O)Nc2ccccc2)cc1)N1CCCC1
5% | CC(C)c1ccc(NC2CCCN(C(=O)CN3C(=O)CSC3=O)C2)cc1 (centres undefined)
-4% | Cc1cc(C)cc(NS(=O)(=O)c2ccc(NC(=O)c3ccccc3C(=O)O)cc2)c1
u | CCOC(=O)c1sc(=S)n(-c2ccc3c(c2)OCO3)c1N
2% | CN(C)c1ncc2nc(-c3ccc(Cl)cc3)c(=O)n(C)c2n1
16% | CCOc1ccc(NS(=O)(=O)c2ccc3[nH]cc(C(=O)NC(C)CC)c(=O)c3c2)cc1 (centres undefined)

16 entries from above, tab-delimited.
canonical_smiles	VDR inh
Cc1ccc(SCC(=O)OC(C)C(=O)NC2(C#N)CCCCC2)cc1 (centres undefined)	8%
Cn1nc(C(F)(F)F)c(C#N)c1N1CCN(c2ccc(F)cc2)CC1	7%
O=C(Nn1cnc2ccccc2c1=O)c1ccc(F)cc1Cl	74%[activator]
CCc1ccc(N2C(=O)Cc3c2nc(N)c(C#N)c3N)cc1	-3%
CCOC(=O)c1c(C)oc2ncnc(Nc3cc(C)cc(C)c3)c12	11%
Cc1cc2nnc(SCC(=O)N(C)C3CCS(=O)(=O)C3)n2c2ccccc12 (centres undefined)	-6%
COc1ccc(NC(=O)c2cccc(N3C(=O)C4CC=C(C)CC4C3=O)c2)c(OC)c1 (centres undefined)	15%
CC(C)Cn1c(C2CC(=O)N(c3ccccc3Cl)C2)nc2ccccc21 (centres undefined)	-7%
CC(OC(=O)C1CCN(S(=O)(=O)c2ccc(C(C)(C)C)cc2)CC1)C(=O)N(C)C1CCCCC1 (centres undefined)	-18%
Cc1cccnc1NC(=O)CSc1ccc2c(c1)OCCO2	4%
COc1ccc(N2CCN(C(=O)c3ccc(S(=O)(=O)N4CCOCC4)cc3)CC2)cc1	8%
COc1ccc(N2CCN(Cc3cc(=O)oc4cc(-c5ccccc5)c(O)cc34)CC2)cc1	6%
COCCN(C(=O)COC(=O)CC(C)c1ccccc1)c1c(N)n(Cc2ccccc2)c(=O)[nH]c1=O (centres undefined)	7%
COC(=O)C(CCSC)NC(=O)CNS(=O)(=O)c1ccc(Br)cc1 (centres undefined)	30%
CCOC(=O)C(=O)Nc1nc(-c2ccccc2)c(-c2ccccc2)o1	-3%
CC(C)CCC1(CCNC(=O)c2cccs2)CCOC(C)(C)C1 (centres undefined)	12%

(continued)
VDR inh | compound
-1% | CNC(=O)COC(=O)CNC(=O)c1cc(Cl)cc([N+](=O)[O-])c1
-3% | O=C(CNC(=O)c1ccco1)NCCCc1ccccc1
8% | CCOCCCNS(=O)(=O)c1ccc(NC(=O)Cc2c(F)cccc2Cl)cc1
-27% | CC(CSc1n[nH]c(=S)s1)c1ccccc1 (centres undefined)
8% | O=[N+]([O-])c1cccc(S(=O)(=O)/N=C(/Nc2ccccc2)c2ccccc2)c1
-3% | CC(=O)c1ccc(NC2OC(C)C(O)C(O)C2O)cc1 (centres undefined)
-14% | CC1=C(C(=O)OCC(C)C)C(c2ccsc2)NC(=O)N1 (centres undefined)
-19% | COC(=O)C[C@H]1c2cc(F)cc(F)c2S(=O)(=O)N1C1CCN(Cc2ccccc2)CC1
19% | Cc1cccc(C)c1N1CCc2cn[nH]c21
12% | CCOC(=O)Nc1ccc(S(=O)(=O)NCCCN2CCOCC2)cc1
-4% | O=C(O)c1ccc(NC(=O)C2(c3ccccc3)CCOCC2)cc1
-10% | CCn1c(Cc2cccc3ccccc23)nnc1SCC(=O)Nc1nccs1
3% | CCOC(=O)C1CCCN(c2nc3c(C)cccn3c(=O)c2/C=C(\C#N)C(=O)NCc2ccco2)C1 (centres undefined)
-12% | CCc1ccc(C(=O)C(C)OC(=O)CN2C(=O)NC3(CCCC3)C2=O)cc1 (centres undefined)
5% | COc1ccccc1NC(=S)NC12CN3CN(CN(C3)C1)C2
7% | COCc1nnc(NC(=O)CCCOc2ccccc2)s1
-5% | O=C(NCc1ccco1)c1ccc(Cn2c(SCc3ccc(F)cc3)nc3cccnc32)cc1
-8% | Cc1ccc(-c2c3c(nc4sc(C(N)=O)c(N)c24)CCC3)cc1
-3% | Cc1ccc2c(Cl)c(C(=O)NCCCn3ccnc3)sc2c1
-22% | COc1cc(COCC(O)CN2CCN(Cc3ccc4c(c3)OCO4)CC2)cc(OC)c1OC (centres undefined)
u | CN(Cc1ccco1)C(=O)CCc1nc2sc3c(c2c(=O)[nH]1)CCCC3
10% | CCOC(=O)N1CCN(C(=O)CCNS(=O)(=O)c2ccc(C)c(C)c2)CC1
-12% | O=C(O)c1cccc(-n2c(O)c(C=C3N=c4ccccc4=N3)sc2=S)c1
1% | COC(=O)c1ccc(C2/C(=C(/O)c3ccc(Cl)cc3)C(=O)C(=O)N2C2CCS(=O)(=O)C2)cc1 (centres undefined)
-5% | NN1C(=O)/C(=C2/Sc3ccccc3N2CCCS(=O)(=O)O)SC1=S
1% | COc1ccc(-c2onc(C)c2C)cc1S(=O)(=O)NCC1CCN(Cc2ccccc2F)CC1
-25% | CC1=C(C(=O)OC2CCCC2)C(c2ccc(Cl)cc2)CC(=O)N1 (centres undefined)
-4% | CCN(CC(=O)N1CCOCC1)S(=O)(=O)c1ccccc1
-20% | Cc1cccc(/C=N/NC(=O)c2cc(Br)ccc2O)n1
6% | CCOC(=O)C1CCN(S(=O)(=O)c2ccc(OCC(=O)OC)cc2)CC1
5% | O=C(N/N=C/c1cc([N+](=O)[O-])ccc1O)/C(=C\c1cccs1)NC(=O)c1ccccc1
-17% | COc1ccc(OC)c(N=Cc2c(O)c3ccccc3oc2=O)c1
-2% | CCCCn1c(CCC(=O)O)nc2cc(S(=O)(=O)N(CC)CC)ccc21
2% | Cc1cc(OC(C)C(=O)NCc2cccnc2)c2c(C)c(C)c(=O)oc2c1 (centres undefined)
-4% | O=c1[nH]c(C2CCN(S(=O)(=O)c3cccc([N+](=O)[O-])c3)CC2)nc2c1nnn2Cc1ccccc1
-11% | COc1ccc(NC(=S)NC(=O)/C=C/c2ccco2)c(OC)c1
3% | COc1ccccc1N1CCN(C(=O)CCCN2C(=O)c3cccc4cccc(c34)C2=O)CC1
-3% | O=C(c1ccccc1-c1ncc[nH]1)N1CCCC(Nc2ccc(F)cc2)C1 (centres undefined)
